Bioassay records as filed in PubChem BioAssay.
HTT promoter inh = inhibitors of huntingtin promoter activity; Potency, µM (titrated, usually from 57.5 µM), inactives show top-dose activity change, negative = inhibition, usual class: inhibitors; hit rate 0.93% among 48,000; HEK293 HTT promoter firefly luciferase reporter (activity 0% = vehicle and -100% = no light), 24 h; AID 1508623; active = well fitted inhibition curve with a large enough effect; inconclusive = small, poorly fitted or top-dose-only effect; inactive = no such curve, though single readings can be large or run the other way; note: nearly all actives have a fitted effect of over 50% in size
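Luminescence was read after Dual-Glo reagent and a 10 min room-temperature incubation. Values were normalized to vehicle (0% activity) and zero RLU (-100% activity). Reporter HEK293 cells had been exposed to compounds (up to 57.5 uM final) for 24 h.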
PMP22 txn = modulators of PMP22 gene transcription in S16 Schwann cells; S16 Pmp22-F2sN Schwann cells (luciferase reporters placed in the Pmp22 gene), FLuc/NLuc coincidence luminescence, 24 h; Potency, µM (titrated, usually from 57.5 µM), for inactives: at the top dose activity change, negative = inhibition, most hits filed as inhibitors; hit rate 2% among 43,000; active = clear falling dose curves in both reporters; inconclusive = both reporters move, but less clearly or upward; inactive = either reporter flat; the % is the NLuc reporter signal; note: % is set by controls: 0 for no effect and ±100 for the full control effect; some results filed as inactive show a strong effect at the top dose
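S16 Schwann cells carrying FLuc/NLuc coincidence reporter in the Pmp22 3' UTR treated with compound 24 h at 37C; FLuc then NLuc luminescence read sequentially by dual-luciferase reagents.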
The depositor's hits bear a star; ? = inconclusive; . = not tested or not shown; [ ] = dose if it differs, or a comment. Potency is the fitted concentration of half-maximal effect.

Structure | PMP22 txn | HTT promoter inh
COc1cc(CNC(=O)c2cnc3c(-c4cccc(C)c4)c(C)nn3c2C)cc(OC)c1OC | -6% | ?
CCOc1ccccc1Nc1sc(C(=O)c2ccccc2)c(N)c1C(=O)NCCc1ccccc1 | ? | ?
CCOc1ccc(NC(=O)NC(C)c2c(-n3cccc3)sc3c2CCN(CC)C3)cc1 (stereo unspecified) | 15µM* | -16%
COc1ccc(C)cc1-n1cnc2cc(C(=O)NC3CCCCCC3)ccc21 | 5% | ?
CCc1ccccc1Nc1nn2c(=O)c3ccc(C(=O)NCCc4ccccc4)cc3nc2s1 | ? | -27%
Cc1ccc(NC(=O)c2cc3c(=O)n(Cc4cccnc4)ccc3nc2C)cc1F | -19% | 7%
CN(C)CCOC(c1ccc(Cl)cc1)c1ccccn1 (stereo unspecified) | . | 6%
CCN(CC)CCSc1nnc2c3cc(F)ccc3n(C)c2n1 | ? | -9%
COc1cc(OC)c(NC(=O)N2CC3CCCN3c3ccccc32)cc1Cl (stereo unspecified) | ? | ?
CCOc1ccccc1NC(=O)Cc1noc2ccc(C)cc12 | 12% | 2%
CCc1nnc(NC(=O)CSc2nc3c([nH]c4ccccc43)c(=O)n2-c2cc(C)cc(C)c2)s1 | -30% | 4%
O=C(c1ccc2c(c1)N(Cc1cccc(Cl)c1)C(=O)c1ccccc1S2(=O)=O)N1CCN(Cc2ccccc2)CC1 | -26% | ?
Cc1ccc(CNC(=O)c2cc3c(s2)-c2ccccc2SC3)cc1 | -17% | -4%
O=C1O[C@H]([C@@H](O)CO)C(O)=C1O | . | 6%
CC(C)n1c(SCC(=O)c2ccc(F)cc2)nc2c(sc3ccccc32)c1=O | -1% | -24%
COc1cc(OC)c(NC(=O)c2oc3ccc4c(c3c2C)C(=O)CC(C)(C)O4)cc1Cl | -2% | -4%
CCOc1ccccc1NC(=O)Cn1c(=O)n(-c2ccc(C)c(C)c2)c(=O)c2c(C)c(C(=O)N(C)C)sc21 | -18% | 7%
COc1ccc(NC(=O)CSc2nc(O)c(C/C=C/c3ccccc3)c(=O)[nH]2)cc1 | 13% | -17%
COc1ccccc1N1CCN(CCCNC(=O)c2cnn(-c3ccc(C)c(C)c3)c2C2CCN(C(=O)OC(C)(C)C)CC2)CC1 | ? | -23%
Cc1ccc(CSc2ncc(Cl)c(C(=O)Oc3ccc(F)cc3)n2)cc1 | -4% | 28%
COc1ccc(N2CC(NC(=O)c3c(F)cccc3Cl)CC2=O)cc1OC (stereo unspecified) | -4% | -10%
CCc1c(CN2CCN(c3cccc(C)c3C)CC2)csc1C | -5% | -10%
CCc1ccc(S(=O)(=O)NCc2ccc3c(c2)CCN3C(=O)c2ccc(C)cc2)cc1 | -47% | ?
Cc1nc(N2CCOCC2)c2c(C(=O)N3CCN(c4ccccc4)CC3)c(C)oc2n1 | -1% | 1%
CCOc1cc(C(=O)N(Cc2nc(-c3ccc(C)cc3)no2)C(C)C)cc(OCC)c1OCC | ? | -24%

Four entries from above in a different format.
> CCOc1ccccc1Nc1sc(C(=O)c2ccccc2)c(N)c1C(=O)NCCc1ccccc1
  PMP22 txn = ?; HTT promoter inh = ?

> CCOc1ccc(NC(=O)NC(C)c2c(-n3cccc3)sc3c2CCN(CC)C3)cc1 (stereo unspecified)
  PMP22 txn = 15µM*; HTT promoter inh = -16%

> COc1ccc(C)cc1-n1cnc2cc(C(=O)NC3CCCCCC3)ccc21
  PMP22 txn = 5%; HTT promoter inh = ?

> CCc1ccccc1Nc1nn2c(=O)c3ccc(C(=O)NCCc4ccccc4)cc3nc2s1
  PMP22 txn = ?; HTT promoter inh = -27%

Next section.
Structure | PMP22 txn | HTT promoter inh
COC(=O)c1cc(NC(=O)c2ccc(-c3ccc(Cl)cc3Cl)o2)cc(C(=O)OC)c1 | -11% | -8%
CN1C(=O)c2ccccc2Sc2ccc(NC(=O)NCc3ccc(Cl)cc3)cc21 | ? | ?
O=C(CSc1nc(=O)[nH]c2c1CCC2)Nc1cc(C(F)(F)F)ccc1Cl | -21% | ?
CCCCOC(=O)c1ccc(Nc2nnc(-n3nc(C)cc3C)c3ccccc23)cc1 | ? | -23%
CCN(CC)c1ccc2nc3c(=O)n(C)c(=O)n(C)c3nc2c1 | -75% | 21%
O=C(CCC(=O)N1CC2CCCN2c2ccccc21)NCc1ccc(Cl)cc1 (stereo unspecified) | -10% | -15%
Cn1nnnc1SCCCNCc1ccccc1OCc1ccccc1Cl | 13µM* | 14µM*
CCOC(=O)c1ccccc1NC(=O)CSc1nc(=O)[nH]c2c1CCCC2 | 4% | -6%
O=C(Nc1cc(C(F)(F)F)ccc1Cl)c1nc2ccccc2nc1N1CCCCC1 | ? | -4%
O=C(CSc1n[nH]c(-c2ccccc2Cl)n1)N1CCN(c2ccccc2F)CC1 | -6% | -19%
CCC(=O)N1CCc2cc(S(=O)(=O)NC(Cc3ccccc3)C(=O)Nc3cccc(OC)c3)ccc21 (stereo unspecified) | 31% | -11%
CCCOc1ccc(C(=O)Nc2ccc3oc(-c4ccc(N(C)C)cc4)nc3c2)cc1 | -5% | -15%
COC(=O)c1ccc(Cn2nc(-c3ccc(C)cc3)ccc2=O)cc1 | -8% | -10%
CN(C1CCCCC1)S(=O)(=O)c1ccc2c(c1)c(=O)c(C(=O)NCc1ccccc1Cl)cn2C | 17% | -7%[11.5 µM]
O=C(NCCCc1nc2ccccc2n1Cc1ccccc1Cl)C1CCCCC1 | ? | ?
CC(=O)OCC(=O)[C@@]1(O)CC[C@H]2[C@@H]3CCC4=CC(=O)CC[C@]4(C)[C@H]3C(=O)C[C@@]21C | . | 3%
O=C(CN1C(=O)COc2ccc(S(=O)(=O)N3CCOCC3)cc21)N1CCN(c2ccc(F)cc2)CC1 | -14% | -7%
COc1ccccc1NC(=O)c1sc2nc3c(cc2c1N)CN(Cc1ccccc1)CC3 | ? | -25%
O=C(Nc1cccc(Cl)c1Cl)c1ccc2c(c1)N(Cc1cccc(Cl)c1)C(=O)c1ccccc1S2(=O)=O | -16% | -11%
COC(=O)CCNC(=O)N1CCN(c2nnc(C)c3c(C)n(-c4ccc(Cl)cc4)nc23)CC1 | 7% | -3%
CC(C)c1ccc(NC(=O)CC2Oc3ccccc3NC2=O)cc1 (stereo unspecified) | -13% | -21%
Cc1ccc(Cn2c(CN3CCC(C(=O)NCc4cccnc4)CC3)cc3ccccc32)cc1 | ? | -5%
CCn1cc(C(=O)NCCC(C)C)c(=O)c2cc(S(=O)(=O)N(C)C3CCCCC3)ccc21 | 4% | -6%
C=Cc1ccc(Cn2c(C(=O)O)c(CNCc3cc(Br)ccc3OC)c3ccc(C)cc32)cc1 | 25% | 2%
O=C(C1CCN(S(=O)(=O)c2cccc3nonc23)CC1)N1CCN(c2ccc(F)cc2)CC1 | -29% | -27%
Cc1ccc(NC(=O)CSc2nc(=O)cc(N)n2-c2ccccc2)cc1 | 2% | -6%
O=C(NCCC1=CCCCC1)C1CCN(C(=O)N2CCOc3ccc(Cl)cc32)CC1 | ? | ?
O=c1c2sc3ccccc3c2n(Cc2ccccc2F)c(=O)n1CCc1ccccc1 | -6% | 17%
Cc1cc(C)c(S(=O)(=O)NCc2ccc3c(c2)CCN3C(=O)c2ccccc2)c(C)c1 | -16% | ?
CCc1ccccc1NC(=O)C(CCSC)NS(=O)(=O)c1ccc2c(c1)oc(=O)n2C (stereo unspecified) | -6% | -26%
COc1cccc(C2=C(C(C)=O)Sc3nncn3N2C(C)=O)c1 | ? | -18%
COc1ccc2cc(-c3nc(Cl)c4c5c(sc4n3)CC(C)CC5)c(=O)oc2c1 (stereo unspecified) | -3% | -13%
CC1CCN(C(=O)Cn2c(=O)oc3cc(S(=O)(=O)N4CCCCC4)ccc32)CC1 | -6% | -17%
O=C(Cn1nc(Cc2cccnc2)c2ccccc2c1=O)Nc1cccc(C(F)(F)F)c1 | ? | ?
CCn1ccc2c(OCC(=O)Nc3ccc(C(C)=O)cc3)cccc2c1=O | -5% | -21%
CCOC(=O)c1ccc(N2C(=O)c3[nH]nc(-c4ccc(OC)cc4)c3C2c2cccc(O)c2)cc1 (stereo unspecified) | ? | ?
CN(C)c1ccc(CNC(=O)c2ccc(NC(=O)c3nsc4ccccc34)cc2)cc1 | ? | ?
CC(=O)Oc1ccccc1C(=O)Nc1ncc([N+](=O)[O-])s1 | . | ?
Cc1nc2ccccn2c(=O)c1NC(=O)c1cccc(F)c1 | 4% | 12%
Cc1cccc(NC(=O)CN(C)S(=O)(=O)c2ccc3c(c2)c(=O)n(C)c(=O)n3C)c1C | -21% | 1%
Cc1ccc(C)c(S(=O)(=O)NCCc2csc(-c3ccc(Cl)cc3)n2)c1 | ? | ?
Cc1ccc(NC(=O)CSc2[nH]c(=O)ncc2C)cc1 | 4% | 62%[activator]
Cn1c(=O)c2c(-c3cccc(Br)c3)n(C(C)(C)CO)cc2n(C)c1=O | -23% | -15%
COc1ccc(NC(=O)NCc2cccn2Cc2ccc(F)cc2)cc1OC | -61% | ?
COc1ccc(CNC(=O)C2CCN(C(=O)c3ccc(-n4ccc5ccccc54)s3)CC2)cc1 | -42% | ?
Cc1ccccc1-n1c(=O)c2c3c(sc2n2cnnc12)CCCC3 | 19% | -10%[11.5 µM]
CC1CCN(S(=O)(=O)c2ccc3c(c2)N(CC(=O)NC(C)c2ccccc2)C(=O)CO3)CC1 (stereo unspecified) | -1% | -14%
Cc1cccc(Cn2c(=O)n(-c3cc(C)cc(C)c3)c(=O)c3oc4ccccc4c32)c1 | -20% | -11%
CCCCNc1ccc(-c2nc(-c3ccco3)no2)cc1[N+](=O)[O-] | ? | 47%[activator]
CCOc1ccc(S(=O)(=O)n2nc(C)c(S(=O)(=O)N3CCCCC3)c2C)cc1 | 4% | -8%

Part of the list above in order of length of the SMILES, smallest number first.
Structure | PMP22 txn | HTT promoter inh
COc1cccc(C2=C(C(C)=O)Sc3nncn3N2C(C)=O)c1 | ? | -18%
Cn1c(=O)c2c(-c3cccc(Br)c3)n(C(C)(C)CO)cc2n(C)c1=O | -23% | -15%
COc1ccc(CNC(=O)C2CCN(C(=O)c3ccc(-n4ccc5ccccc54)s3)CC2)cc1 | -42% | ?

(cont.)
Structure | PMP22 txn | HTT promoter inh
CCOC(=O)c1ccccc1NC(=O)CCc1nc(-c2ccc(C)cc2)no1 | -11% | -6%
Cc1cc(C)cc(N2CCn3c2nc2c3c(=O)n(Cc3ccc(Cl)cc3)c(=O)n2C)c1 | -4% | -8%
CCOc1ccc(Cn2nnc(C(=O)Nc3cccc(SC)c3)c2N)cc1 | -5% | 2%
Cc1ccc(C#N)c(=O)n1CC(=O)Nc1ccccc1C(F)(F)F | 1% | -9%
CCC(C(=O)N1CCN(c2cccc(C)c2C)CC1)n1nc(C)c2sc3ccccc3c2c1=O (stereo unspecified) | 2% | -7%
O=C(Cn1c(=O)n(-c2cccc(Cl)c2)c(=O)c2sc3ccccc3c21)N1CCCC1 | -4% | -14%
CC(=O)N1c2c(cc(Br)cc2S(=O)(=O)Nc2ccccc2C)CC1C (stereo unspecified) | ? | -23%
Cn1cc(S(=O)(=O)N2CCc3ccccc32)cc1C(=O)Nc1ccc(C(F)(F)F)cc1 | -25% | ?
COc1ccc(CCNc2ncnc3c2cnn3-c2cc(Cl)ccc2C)cc1 | ? | ?
CC(C)(C)OC(=O)N1CCC(c2c(C(=O)N3CCN(C(=O)c4ccco4)CC3)cnn2-c2ccccc2)CC1 | 4% | -8%
CCSc1ncc(Cl)c(C(=O)N(Cc2ccc(N(C)C)cc2)Cc2ccco2)n1 | ? | ?
Cc1nn(CC(=O)Nc2ccc(C(C)C)cc2)c(=O)c2c(C)n(-c3ccc(Cl)cc3)nc12 | -29% | -10%
COc1ccc(CN(Cc2ccco2)C(=O)COc2ccccc2OC)cc1 | -1% | -12%
CCc1ccc(NC(=O)c2ccc(F)c(S(=O)(=O)N(C)C3CCCCC3)c2)cc1 | ? | ?
CCOc1ccccc1NC(=O)c1sc2nc(C)cc(C)c2c1N | ? | 13%
CCCC12CN3CC(CCC)(CN(C1)C3c1ccccc1)C2=O (stereo unspecified) | -19% | -21%
CCOC(=O)c1ccc(NC(=O)/C(C#N)=C/c2ccc(OC)cc2)cc1 | 9% | -13%[11.5 µM]
CCCN(C(=O)Cn1ncc2c([nH]c3ccccc32)c1=O)c1ccc(F)cc1 | 3% | -25%
CCOC(=O)c1c(C)[nH]c(C)c1S(=O)(=O)N(C)CC(=O)Nc1ccc(C)cc1Br | 9% | -31%
COc1ccc(C(=O)NCC(c2ccc(N(C)C)cc2)N2CCc3ccccc32)c(OC)c1 (stereo unspecified) | -19% | -17%
CCN1C(C(=O)c2ccccc2)=C(OC(=O)c2ccc(Cl)cc2)c2ccccc2S1(=O)=O | -42% | ?
CCOc1ccc(-c2cc(-c3nc(-c4ccc(C)cc4)no3)[nH]n2)cc1 | -14% | -15%

Random draw from the library; about 2.7% have a hit in one of these screens.
